D2 agonist: human D2 receptor agonism in beta-arrestin assay | DiscoveRx PathHunter D2 beta-arrestin, luminescence, 90 min; 100% = 57 uM dopamine signal | actives 0.084% (n = 360,000) | P14416 | activation, % (test concentration not listed); in the data active = activation above about 40%; inconclusive = about 15% to 40%; inactive = below about 15%; note: compound concentration not given in the record; the text of the record calls up to 30% inactive
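Agonist mode: compounds alone added to overnight-plated D2 PathHunter cells for 90 min at 37 C, with 57 uM final dopamine (EC100) defining full response. Beta-arrestin recruitment detected by chemiluminescent reagent, read after 1 h at ambient temperature.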
TRPML1 inh: human mucolipin-1 channel inhibition; actives 0.02% (n = 390,000); activity change, negative = inhibition, % (concentration not given with the values); TRPML1-inducible cells, Ca2+ dye fluorescence, FDSS; hits give low values; inhibition of EC80 agonist-evoked calcium signal; in the data active means activity change below about -50%; inconclusive means about -30% to -50%; inactive means above about -30%;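 note: stimulus is agonist 54-4 at its EC80 concentration; % is set by controls: 0 for no effect and ±100 for the full control effect; compound concentration not given in the record; the text of the record puts the active cut at -80%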
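Calcium fluorescence in TRPML1-DL cells induced overnight with Tet: a 110 s read after compound pin addition, then a 110 s antagonist read after challenge with 54-4 at 4 uM final (EC80).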
PINK1 expr mod: changes PINK1 expression; actives 0.2% (n = 410,000); Potency, µM (series often up to 76.6 µM), without a hit: top-dose activation (PINK1 increase), hits mostly activators; AID 624263; PINK1 immunofluorescence, high-content cytometry, 24 h; active = well fitted activation curve with a large enough effect; inconclusive = small, poorly fitted or top-dose-only effect; inactive = flat fitted curve, though single readings scatter; cell line not stated here;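 note: potency is the fitted concentration of half-maximal effect; % of control where 0% means no effect; nearly all actives have a fitted effect of over 65% in size; a mitochondrial uncoupler was the plate control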
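Measures PINK1 amount and localization on or inside mitochondria by immunofluorescence. Stable cells get compounds at 5 concentrations for 24 hours before fixation and staining; CCCP controls included.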
CtBP-E1A blk: inhibitors of CtBP/E1A interaction. AlphaScreen GST-E1A/His-CtBP binding, 1536-well; hits give low values; control for the full effect not named in the record. activity change, % (test concentration not listed). actives 0.49% (n = 340,000); in the data active means activity change below about -65%; inconclusive means about -30% to -65%; inactive means above about -30%; note: % is set by controls: 0 for no effect and ±100 for the full control effect; compound concentration not given in the record
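AlphaScreen with 125 nM GST-E1A and 125 nM His-CtBP (5X stocks) in Tris pH 8.0, 300 mM NaCl, BSA, Tween 20, TCEP. Compounds preincubated 2 h at 37 deg C, then glutathione donor/nickel acceptor beads added for 1 h at 37 deg C in dark.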
Six1-Eya2 inh: blocks human Six1 binding to Eya2; Q15475+O00167; AlphaScreen GST-Six1/His-Eya2 binding, biochemical; hits give low values; control for the full effect not named in the record; activity change, % (no concentration beside the values); actives 0.56% (n = 360,000); AID 651725; in the data active = activity change below about -65%; inconclusive = about -30% to -65%; inactive = above about -30%; note: % is set by controls: 0 for no effect and ±100 for the full control effect; compound concentration not given in the record
Target sequence (O00167 whole entry, looked up): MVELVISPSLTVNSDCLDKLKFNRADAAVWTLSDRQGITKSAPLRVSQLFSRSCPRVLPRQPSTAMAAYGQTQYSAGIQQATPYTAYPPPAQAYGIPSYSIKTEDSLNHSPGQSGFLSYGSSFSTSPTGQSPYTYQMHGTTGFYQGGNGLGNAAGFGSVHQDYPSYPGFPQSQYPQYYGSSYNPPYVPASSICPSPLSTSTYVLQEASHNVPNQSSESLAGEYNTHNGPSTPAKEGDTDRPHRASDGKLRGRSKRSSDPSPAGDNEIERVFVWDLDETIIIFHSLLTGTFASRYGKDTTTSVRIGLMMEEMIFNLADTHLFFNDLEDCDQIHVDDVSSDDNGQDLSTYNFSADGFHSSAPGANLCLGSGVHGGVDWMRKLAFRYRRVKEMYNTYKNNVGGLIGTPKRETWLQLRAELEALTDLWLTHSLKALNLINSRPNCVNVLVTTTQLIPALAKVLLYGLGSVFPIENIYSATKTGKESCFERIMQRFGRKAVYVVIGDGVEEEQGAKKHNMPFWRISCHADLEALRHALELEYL
Target sequence (Q15475 whole entry, looked up): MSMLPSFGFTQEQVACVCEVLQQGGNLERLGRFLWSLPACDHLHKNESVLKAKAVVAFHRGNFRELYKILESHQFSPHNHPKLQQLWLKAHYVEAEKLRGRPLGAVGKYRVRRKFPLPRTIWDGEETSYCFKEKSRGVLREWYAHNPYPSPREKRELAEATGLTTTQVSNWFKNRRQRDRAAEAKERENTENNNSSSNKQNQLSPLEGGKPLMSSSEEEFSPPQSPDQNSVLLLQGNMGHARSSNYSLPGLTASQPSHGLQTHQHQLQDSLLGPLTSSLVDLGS
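AlphaScreen with GST-Six1 and His-Eya2 (5X mix: 250 nM and 500 nM), glutathione donor and nickel acceptor beads; buffer 50 mM Tris pH 8.0, 300 mM NaCl, 1 mM TCEP; 1 h at 37 C in the dark.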
TRPML1 ag: human mucolipin-1 channel agonism. TRPML1-expressing cells, Ca2+ dye fluorescence, FDSS; host cell line not named in the record; reference of the full effect not given here. activation, % (no concentration beside the values). actives 0.12% (n = 410,000). AID 624414; in the data active = activation above about 50%; inconclusive = about 30% to 50%; inactive = below about 30%; note: 0% is about no effect; the text of the record puts the active cut at 80%
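Tet-induced TRPML1-DL cells, 1,500 per well, cultured overnight, were loaded with a no-wash Ca2+ dye for 45–90 min. Calcium fluorescence was recorded on the FDSS for 110 s after compound addition, before the EC80 agonist (4 uM 54-4) was added.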
Starred values were filed as active, the others as inactive; u = inconclusive; x = no result given; [ ] = another dose, or the depositor's remark.

SMILES | D2 agonist | TRPML1 inh | PINK1 expr mod | CtBP-E1A blk | Six1-Eya2 inh | TRPML1 ag
O=C(CCCN1CCC(NC(=O)c2ccccc2)CC1)c1ccc(Cl)cc1 | 0.6 | -3.3 | 1.1% | 1.3 | -0.3 | 0.3
COc1cc(C2C(C#N)=C(N)Oc3cc(O)ccc32)cc2c1OCO2 (stereo not drawn) | 2.8 | -4.0 | 4.0% | -7.5 | -2.4 | -0.1
Cc1ccc2nc(Cl)c(/C=N/NC(=O)CN3CCOCC3)cc2c1 | -2.1 | -11.4 | 2.3% | 0.2 | -5.6 | 1.2
CCCC(=O)NC(=S)Nc1cccc(C(C)=O)c1 | -0.9 | 7.9 | -1.8% | 7.2 | 6.3 | 0.8
O=C(O)Cc1cccc2c(=O)cc(-c3ccccc3)oc12 | -3.7 | x | 0.9% | -0.1 | 5.9 | -0.5
CCOc1ccc(C(=O)Nc2ccc(C(=O)OCc3cc(=O)n4nc(CC)sc4n3)cc2)cc1 | x | 35.0 | 2.0% | x | x | 2.1
Cc1ccc(N/N=C/c2c(C)c(C#N)c(=O)n(C)c2O)cc1C | 1.1 | 7.1 | 0.8% | -18.1 | -0.1 | -0.2
Cc1ccc(OCCn2nnc3ccccc32)cc1C | 2.1 | -10.4 | 1.3% | 13.9 | 7.1 | 0.7
C=CCN(CC=C)C(=O)CN1C(=O)NC(C)(c2ccc3cc(OC)ccc3c2)C1=O (stereo not drawn) | 5.8 | -0.6 | -1.6% | 1.0 | 1.1 | -0.3
Cn1cccc1/C=N/NC(=O)CSc1nc2ccccc2[nH]1 | -4.1 | -7.7 | -0.2% | -14.2 | -20.1 | -0.8
O=C(NCCc1nc2ccccc2[nH]1)/C(=C/c1ccc2c(c1)OCO2)NC(=O)c1ccccc1Cl | 0.9 | -5.8 | -0.3% | -16.9 | -12.4 | -0.5
O=C(c1cc(-c2ccc(Br)cc2)n[nH]1)N1CCN(S(=O)(=O)c2ccc(Br)s2)CC1 | x | 1.1 | 4.6% | x | x | 1.9
O=C(O)c1cnn(-c2nc(-c3cccc([N+](=O)[O-])c3)cs2)c1C(F)(F)F | -1.2 | 1.3 | -2.8% | 0.0 | 20.8 | 1.3
Cc1ccc(S(=O)(=O)NCCN=C(CN2CCCC2)NS(=O)(=O)c2ccc(C)cc2)cc1 | -3.4 | 10.3 | -30.0%[inhibitor][38.3 µM] | -6.1 | 5.5 | -0.5
COc1ccccc1NCCC#N | -0.9 | -1.3 | -0.3% | -0.3 | -3.4 | 0.2
Cc1ccc(CS(=O)(=O)Cc2ccc(C(=O)NCc3ccco3)o2)cc1 | 0.2 | 7.0 | 8.5%[38.3 µM] | -0.5 | -1.7 | 0.9
CCCc1nc(SC)[nH]c(=O)c1C | -1.0 | 16.8 | 0.1% | -10.4 | -2.9 | 1.1
COc1cc(C2C3CN(C)CC=C3C(C#N)=C(N)C2(C#N)C#N)ccc1OC(C)C (stereo not drawn) | -2.4 | -11.1 | 39.8µM* | -19.3 | -13.9 | 10.4
CCOC(=O)CSCC(=O)Nc1cc(C)ccc1C | -3.2 | 4.6 | -0.1%[38.3 µM] | 0.1 | -1.7 | 0.2
Cc1ccsc1/C=N/NC(=O)Cc1ccc([N+](=O)[O-])cc1 | -4.8 | -10.8 | 1.2% | -3.5 | -3.9 | 2.5
Cc1ccc2oc(-c3cccc(NC(=O)Cc4ccc(Cl)cc4)c3)nc2c1 | x | -6.3 | 4.3% | x | x | -0.3
COc1ccc(CCNC(=O)c2ccc(Cn3c(=O)c4ccccc4n(Cc4ccc(F)cc4Cl)c3=O)cc2)cc1OC | x | 0.8 | 1.3% | x | x | 0.1
CCS(=O)(=O)N1CCCC(C(=O)NCCCN2CCCC2=O)C1 (stereo not drawn) | -1.9 | 1.5 | 0.4% | 5.2 | -0.6 | -0.6
Cc1cc(O)c(CN2CCN(c3ccccc3)CC2)c2oc(=O)cc(C)c12 | x | 38.8 | 0.0% | x | x | 0.4
CCOc1cccc(-n2nnnc2-c2ccc(OC)cc2)c1 | -0.4 | -1.2 | 0.0% | 6.4 | 7.8 | 5.5
Cc1cc(=O)[nH]c(SC(C)C(=O)Nc2cccc3ccccc23)n1 (stereo not drawn) | -1.5 | 3.6 | 1.9% | -10.8 | 1.3 | 0.4
CC(C)c1ccc(NC(=O)C2CCCN(S(=O)(=O)c3cccc4nonc34)C2)cc1 (stereo not drawn) | x | 7.0 | 4.8% | x | x | -0.5
CCC1(c2ccccc2)NC(=O)N(CC(=O)Nc2cc(Cl)ccc2N2CCOCC2)C1=O (stereo not drawn) | -6.4 | 4.8 | 0.6% | 10.1 | -1.8 | 6.3
Cc1ccc2nc(-c3ccc(N)cc3)sc2c1 | -3.9 | -10.4 | 1.8% | 0.0 | -4.7 | 0.4
CCc1cc2c(=O)c(-c3nc4ccccc4[nH]3)coc2c(CN2CCCCC2)c1O | 0.1 | 12.0 | 2.7% | 2.1 | -1.5 | 0.8

One compound at a time, from the list above:
Profile of Cc1ccc(OCCn2nnc3ccccc32)cc1C = D2 agonist = 2.1; TRPML1 inh = -10.4; PINK1 expr mod = 1.3%; CtBP-E1A blk = 13.9; Six1-Eya2 inh = 7.1; TRPML1 ag = 0.7
Profile of CC(C)c1ccc(NC(=O)C2CCCN(S(=O)(=O)c3cccc4nonc34)C2)cc1 (stereo not drawn) = D2 agonist = x; TRPML1 inh = 7.0; PINK1 expr mod = 4.8%; CtBP-E1A blk = x; Six1-Eya2 inh = x; TRPML1 ag = -0.5

Continued:
SMILES | D2 agonist | TRPML1 inh | PINK1 expr mod | CtBP-E1A blk | Six1-Eya2 inh | TRPML1 ag
CC(=O)c1cccc(N=c2scc(-c3ccc(S(=O)(=O)N4CCOCC4)cc3)n2CCO)c1 | -1.2 | -8.9 | 1.4% | -21.9 | -23.2 | 0.6
CC(C)(C)C1=Nn2c(nnc2C2CCCCC2)SC1 | 0.1 | 10.8 | u | -10.8 | 3.4 | 0.8
Cc1ccc(NC(=O)CN2C(=O)S/C(=C\c3ccccn3)C2=O)cc1C | -0.2 | 3.2 | 8.3% | 1.7 | 8.7 | 0.0
Cc1nn(-c2cccc(Cl)c2)c2c1C(c1ccncc1)C(C#N)=C(N)O2 (stereo not drawn) | -4.4 | 4.0 | 0.1% | u | u | -0.6
C/C(=N/NC(=O)c1ccco1)c1ccc(NC(=O)c2ccc(Br)o2)cc1 | 1.4 | -8.2 | 1.4% | -1.7 | -8.9 | -0.2
Cc1ccc2c(CC(=O)NCC(C)(C)N3CCOCC3)coc2c1 | -2.1 | -8.0 | 0.9% | 0.0 | 24.5 | 1.0
Cc1ccc(OCC(=O)Nc2c3c(nn2C(C)(C)C)CS(=O)(=O)C3)cc1 | 5.2 | 0.7 | 1.7% | 9.6 | -5.7 | -0.5
COc1ccc(-c2csc(/C(C#N)=C\c3ccc(OC)c([N+](=O)[O-])c3)n2)cc1 | 0.8 | 12.6 | 3.7% | 26.1 | 14.6 | 1.2
Cc1ccccc1NC(=S)N=Nc1c(O)n(C)c2ccc(S(=O)(=O)N3CCOCC3)cc12 | 4.8 | 3.6 | 1.5% | -2.7 | -14.6 | -0.6
CCOC(=O)c1cnc(/N=C/N(C)C)s1 | 1.3 | -4.6 | -0.1% | 6.1 | 11.3 | 0.8
Cc1nccc2[nH]c(=O)c(C(=O)NC3CCCCC3C)cc12 (stereo not drawn) | 1.0 | 15.5 | -2.5% | -10.3 | -3.0 | 0.5
COc1ccc(C)cc1N(C(=O)c1snc(C(N)=O)c1N)C(C(=O)NC1CCCCC1)c1ccc(C)o1 (stereo not drawn) | 0.2 | 37.3 | 0.6% | -5.5 | 7.6 | 3.9
CC(C)(C)C1=C(C#N)C(c2cccnc2)C(C#N)=C(N)O1 (stereo not drawn) | -2.4 | 4.2 | 2.4% | 1.2 | -0.9 | -0.3
CN(c1ccccc1N(C)S(=O)(=O)c1ccccc1)S(=O)(=O)c1ccccc1 | 1.3 | -25.8 | -5.2% | 5.1 | 1.5 | 1.8
O=C1Cc2cc(S(=O)(=O)N3CCCCC3)cc3c2N1CCC3 | x | 1.3 | 0.9% | x | x | -0.4
Cc1nnc2n1N=C(c1ccc(F)cc1F)CS2 | -2.9 | 1.7 | -0.1% | x | 1.8 | -0.6
COCCNC(=O)C(OC(=O)c1nsc(Cl)c1Cl)C(C)C (stereo not drawn) | -1.6 | 11.8 | 1.8% | 5.6 | -23.6 | 0.2
COc1ncnc2c1ncn2CCCN[C@H](C)c1cccc2ccccc12 | -3.5 | 10.9 | 3.0% | 3.2 | -0.7 | 0.1
O=C(CNC(=O)C12CC3CC(CC(C3)C1)C2)NC1=NCCS1 | 2.3 | 5.3 | 0.9%[38.3 µM] | 5.1 | 4.9 | 4.4
O=C(COC(=O)c1ccc(Cl)nc1)Nc1c(Cl)cccc1C(F)(F)F | -3.6 | -8.2 | -0.9% | -7.6 | -4.5 | -0.4
COc1ccccc1C(=O)NC1CC2CCC(C1)N2Cc1ccccc1 (stereo not drawn) | 0.6 | 4.0 | -0.3% | 5.7 | -1.7 | -0.2
O=C(Nc1ccc2c(c1)OCO2)c1nn(-c2ccccc2)c(=O)c2ccccc12 | -0.9 | 50.3 | 2.6% | -22.5 | -27.0 | 0.8
Cc1ccc(C(=O)CSc2nc3ccccc3c(=O)[nH]2)cc1C | 5.4 | u | -1.1% | -0.4 | 7.1 | 5.7
CC(C)(C)C(=O)c1c(N)[nH]c(C(=O)c2ccccc2)c1-c1ccc(Cl)cc1 | x | x | 9.9% | 1.7 | -15.1 | -0.7
COC(=O)C1CCN(c2cc(=O)n(C3CCCCC3)c(=O)[nH]2)CC1 | -1.2 | -13.6 | 4.1% | 4.3 | -2.6 | 3.3
COc1cc(N)c(Cc2nccc3cc(OC)c(OC)cc23)cc1OC | 8.1 | -4.6 | -0.3% | -10.2 | -18.0 | -0.1
CCOC(=O)c1c(NC(=O)CSc2nnc(-c3ccccc3C)n2C)sc(C(C)=O)c1C | 2.1 | -15.8 | -0.5% | -25.1 | -11.5 | 4.0
Cc1cccc[n+]1CC(=O)c1ccccc1 | -0.2 | 3.7 | 2.3% | 11.0 | 0.4 | -1.3
Cn1c(=O)c2cc(S(=O)(=O)NC(Cc3ccccc3)C(=O)NCC3CCCO3)ccc2n(C)c1=O (stereo not drawn) | -4.0 | 9.0 | 1.6% | 0.3 | -0.5 | -0.1
Cc1ccc(NC(=O)c2nc(S(=O)(=O)Cc3ccccc3C)ncc2Cl)cc1C | -5.8 | -1.2 | -1.8% | 0.4 | -10.3 | 0.2
Cc1ccc(C(=O)N2CC(=O)Nc3ccc(C)cc3C2c2ccccc2)cc1 (stereo not drawn) | -0.5 | 35.2 | 3.4% | 8.6 | -2.2 | 2.7
C=CCC[C@H](Cc1ccc(F)cc1)C(=O)OC[C@H](C)NC(=O)[C@H](CC=C)CC(=O)NCCO | 1.7 | 1.3 | 0.1% | 6.1 | 0.1 | -0.7
O=C(CSc1nc(=O)n(CCN2CCOCC2)c2c1CCCC2)Nc1ccc([N+](=O)[O-])cc1 | 1.1 | 5.1 | 0.4% | -6.8 | -10.7 | 1.2

Source: PubChem BioAssay

Compounds as they come; overall some 1% were active at least once.
